Sa ugtP lethal – growth inhibition of ugtP-null S. aureus, primary screen, RN4220 ugtP deletion, OD600; hit rate 0.54% among 330,000; growth inhibition, % (concentration not given with the values); 16 h; some inactives read as strong as hits; AID 1259309, 2017;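 active = z-score under -3 and OD600 up to 0.15 on both plates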;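 note: plate controls were untreated wells for no effect and antibiotic for full effect; wells of about 80 µL received 100 nL stock; the first replicate is given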
PrP 5UTR inh – inhibition of PrP 5' UTR reporter expression; cell-based PrP 5' UTR mRNA reporter, plate reader; inhibition, % (test concentration not listed); hit rate 0.35% among 340,000; AID 488862, 2010;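 active = every replicate at 50% or more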;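 note: 0 = median of the neutral control wells; tested in H4 reporter cells; numbers are from one replicate; inactives centre near -14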
BJeLR viability – MLPCN primary cell-based screen for lethality selective to Ras in HRASV12 cells; BJeLR (HRASV12) viability, CellTiter-Glo ATP luminescence, 48 h; reference of the scale not given here; inhibition, % (no concentration beside the values); hit rate 0.17% among 300,000; AID 1554, 2009;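 active = replicate mean above 50%; inconclusive = above 50% but judged a plate artefact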;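 note: 50 nL library stock added to about 25 µL; numbers are from one replicate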
Mtb hypoxia inh – PubChem AID 1159583. hit rate 0.1% among 300,000. fluorescence inhibition, % (test concentration not listed). M. tuberculosis hypoxia-regulated fluorescent reporter, fluorescence;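 active = 35 to 45% if threefold the growth effect, above 45% if 1.5-fold the growth effect; inactive = the rest, general growth blockers included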;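 note: wells of about 50 µL received 100 nL stock; 0% = vehicle wells and 100% = reference inhibitor wells; whole bacteria with a GFP reporter of the hypoxia response; strong numbers were not always called active; many hits fall short of the cut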
Bead autofluor – counter-screen for toxin protease inhibitors: compound fluorescence. fluorescence intensity (test concentration not listed). hit rate 3.1% among 360,000. compound autofluorescence counterscreen, microsphere flow cytometry; active compounds read high;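 active = at least 3 SD above the mean of all compounds, about 16000 in these data; inconclusive = too few beads counted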;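 note: 100 nL of 1 mM stock went into each well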
RN4220 kill – growth inhibition of S. aureus RN4220, primary screen, OD600. inhibition, % (test concentration not listed). 16 h. hit rate 0.33% among 330,000. AID 1259311, 2017;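 active = z-score of -3 or lower and OD600 up to 0.18 on both plates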;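 note: plate controls were untreated cells for no effect and reference antibiotic for full effect; stock transfer was 100 nL into about 80 µL; one replicate is shown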
Mtb hypoxia inh growth – further read-out of Mtb hypoxia inh, marked with its call; growth inhibition, %; measured here: M. tuberculosis growth (absorbance);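 0% = vehicle and 100% = reference antibiotic; read after six days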
Active calls of the source: *; ? = inconclusive; . = no result given.

The first 2 entries as a preview:
Every second line gives: Sa ugtP lethal	PrP 5UTR inh	BJeLR viability	Mtb hypoxia inh	Mtb hypoxia inh growth	Bead autofluor	RN4220 kill
Cc1ccc(NC(=O)/C=C/c2ccc(Cl)cc2)nc1
 : 0	-34	-7	0	0	4805	5.8
CCN(CC)S(=O)(=O)c1cc(NC(=O)CO/N=C(\N)c2ccccc2Cl)ccc1C
 : 1	-13	.	13	0	3808	3.0

The whole of this part, repeating the preview:
Every second line gives: Sa ugtP lethal	PrP 5UTR inh	BJeLR viability	Mtb hypoxia inh	Mtb hypoxia inh growth	Bead autofluor	RN4220 kill
Cc1ccc(NC(=O)/C=C/c2ccc(Cl)cc2)nc1
 : 0	-34	-7	0	0	4805	5.8
CCN(CC)S(=O)(=O)c1cc(NC(=O)CO/N=C(\N)c2ccccc2Cl)ccc1C
 : 1	-13	.	13	0	3808	3.0
COc1ccc(-c2c(C)nn3c(NC4CCCC4)cc(C)nc23)cc1OC
 : -33	-7	-18	9	14	4030	-5.2
Cc1cc(C(=O)N2CCCC(N3CCN(c4cccc(Cl)c4)CC3)C2)nn1C (stereo unspecified)
 : 8	-5	0	3	8	5774	4.0
Cn1c(=O)n(CCC(=O)O)c2ccccc21
 : 7	-4	-1	.	.	3405	2.9
O=C(COC(=O)c1nc(Cl)ccc1Cl)NCc1ccc(Cl)cc1Cl
 : 3	-19	.	-6	3	5119	4.4
O=Cc1ccc(-n2nncc2-c2ccc([N+](=O)[O-])cc2)cc1
 : -4	-28	-2	8	4	3514	5.4
COc1ccc2cnn(CCOc3ccccc3)c(=O)c2c1OC
 : 5	-91	-5	.	.	4810	4.0
COc1ccc(CC(=O)Nc2ccc(-c3noc(-c4cc(OC)c(OC)c(OC)c4)n3)cc2)cc1
 : -7	-16	.	.	.	3072	-1.1
COCCn1nnnc1C(C(C)C)N1CCN(C(=O)c2ccco2)CC1 (stereo unspecified)
 : 2	-7	8	.	.	5908	2.0
O=C(O)CC1=C(Nc2ccccc2)C(=O)N(c2ccccc2)C1c1ccc(Cl)cc1 (stereo unspecified)
 : -3	-11	5	-5	12	4168	0.1
COC(=O)C1C(=O)C(C(=O)c2ccccc2)C(=O)CC1(C)C (stereo unspecified)
 : 4	-24	-2	-5	-1	3974	1.4
CC(NC(=O)C[n+]1cccc(Br)c1)c1ccccc1 (stereo unspecified)
 : 7	-25	-7	17	8	3274	6.2
CN(C)C(=O)c1ccc2c(c1)C1C3CCC(C3)C1C(c1ccccc1)N2 (stereo unspecified)
 : 6	-4	14	3	14	2729	3.3
O=C(CN(c1cccc(C(F)(F)F)c1)S(=O)(=O)c1ccc(Cl)c([N+](=O)[O-])c1)NCc1ccc(F)cc1
 : 9	-11	-6	1	7	2080	1.9
Cc1nn(CCC#N)c(NC(=O)c2ccc(Cl)cc2)c1P(=O)(Nc1ccc([N+](=O)[O-])cc1)N1CCOCC1 (stereo unspecified)
 : 3	-9	-2	5	14	.	1.5
Cc1cc2ncn(C(=O)c3c(-c4ccccc4Cl)noc3C)c2cc1C
 : 0	-6	-3	.	.	3767	-1.4
COc1ccc(C(=O)CC(=O)c2ccc(C)cc2)c(O)c1
 : -1	-38	1	-3	11	4090	-11
O=C1NC(=O)C(CC(=O)N(Cc2ccco2)C2(C(=O)NC3CCCCC3)CCCCC2)N1 (stereo unspecified)
 : 5	-4	.	.	.	4490	1.5
NC(=O)CC(NC(=O)c1ccc(Br)cc1)c1ccc(NCCc2ccc(F)cc2)c([N+](=O)[O-])c1 (stereo unspecified)
 : 4	-22	5	-2	10	3327	0.7
Cc1nc(NC(=O)CN2CC(C)OC(C)C2)sc1C(=O)N(C)C (stereo unspecified)
 : 4	-20	0	6	2	.	2.6
O=C(COC(=O)Cc1ccccc1)NC12CC3CC(CC(C3)C1)C2
 : -10	-25	3	1	-4	3584	3.7
Cc1onc(-c2c(Cl)cccc2Cl)c1NC(=O)NNc1ccccn1
 : 5	-7	-5	6	-6	4252	3.2
COc1ccc(/C=C(/NC(=O)c2ccco2)C(=O)N2CCOCC2)cc1
 : 2	15	-4	-16	-7	6322	0.4
CCN1CCN(P2(=O)C=C(c3ccccc3)OC(c3ccccc3)=C2)CC1
 : 11	-6	8	6	4	7351	1.9
CCC1CCCCN1S(=O)(=O)c1ccccc1 (stereo unspecified)
 : 4	-16	-2	6	0	4090	3.7
C=C(CCO)C1=CCN(S(=O)(=O)C(C)(C)C)[C@@H]1CCO
 : 3	-12	.	-8	6	3867	2.4
O=C(c1ccc(-n2c(SCc3cc(F)ccc3F)nc3ccccc3c2=O)cc1)N1CCOCC1
 : 11	-8	-6	6	-1	1998	3.1
CCOc1ccccc1C1CC(=O)Nc2cc3c(cc21)OCO3 (stereo unspecified)
 : 8	22	6	8	9	15681	1.0
CCCCC(CC)COC(=O)C(C#N)=C(c1ccccc1)c1ccccc1 (stereo unspecified)
 : 31	-14	.	10	5	5116	-0.6
CN(C)S(=O)(=O)Oc1ccc(C(=O)Nc2ccc([N+](=O)[O-])cc2)cc1
 : -2	-32	-3	3	9	2262	1.5
COCCNC(=O)CN(C(=O)c1ccc(N2CCCC2)nc1)c1ccccc1
 : 9	-3	.	18	3	3256	9.6
CCOC(=O)c1cnc2cc(C)nn2c1C
 : 5	-18	-6	-3	1	.	16
CCCC(=O)c1ccc(N2CCCC2)c(F)c1
 : 12	-44	-5	.	.	6818	25
O=C(CCN1C(=O)/C(=C/c2ccco2)SC1=S)Nc1ccc(C(=O)O)c(O)c1
 : 0	3	-4	.	.	3516	1.4
Cc1cc(NC(=O)CSCC(=O)Nc2cc(C(F)(F)F)ccc2N2CCOCC2)no1
 : 0	-10	.	4	9	3452	7.9
Cc1ccccc1CN1CCCC(C(=O)Nc2ccc(-c3ccn[nH]3)cc2)C1 (stereo unspecified)
 : 7	-10	-2	0	-3	?	-2.8
Cn1c(Cc2ccccc2)[n+](C)c2ccccc21
 : 1	-9	10	16	4	3177	5.3
COc1ccccc1OCC(O)Cn1c(Br)nc2c1c(=O)[nH]c(=O)n2C (stereo unspecified)
 : 0	-18	.	.	.	2548	-2.3
CC(C=Cc1ccccc1)=NNc1ccccc1[N+](=O)[O-]
 : -4	.	.	15	14	.	5.9
NC(=O)c1sc(=S)n2c1[nH]c(=O)c1sccc12
 : -54	-23	0	3	4	4273	13
COc1ccc(-n2nc3c(c2NC(=O)c2ccc(S(=O)(=O)N4CCOCC4)cc2)CS(=O)C3)cc1 (stereo unspecified)
 : 14	-21	7	-7	8	2030	6.2
c1ccc2c(c1)CNc1ccccc1C2
 : -6	-14	-8	4	-2	?	0.2
CC1CCCCN1C(=O)C1CCCCN1S(=O)(=O)c1cccc([N+](=O)[O-])c1 (stereo unspecified)
 : 12	-5	-1	-3	-1	4649	2.8
CCCCC(=O)Nc1c(C)cc(C)cc1Cl
 : 12	-16	-8	.	.	3493	1.5
CC(/C=N/NC(=O)Cn1nccc1C)=C\c1ccc(C(C)C)cc1
 : .	-59	-17	.	.	2382	.
O=C(NCC1CCCO1)C(c1ccc(F)cc1)N(C(=O)Cn1nnc(-c2ccc(F)cc2)n1)c1cccc(O)c1 (stereo unspecified)
 : -10	-1	3	-7	-3	3388	-1.5
COC(=O)c1sccc1NC(=O)COc1cccc(C)c1
 : -2	-20	11	10	-5	5034	4.1
O=C(NN=Cc1ccc(N2CCOCC2)o1)c1cccc(F)c1
 : -6	.	.	1	3	.	2.6
Cc1ccc(C)c2[nH]c(=O)c(CCNC(=O)c3cc4ccccc4o3)cc12
 : -5	-17	-17	2	-1	5642	10
CCOc1ccc(C(=O)N2CCN(CC(=O)N3CCCC3)CC2)cc1OCC
 : 4	-12	.	9	14	3465	7.1
Cn1cnc2c(cnn2-c2ccccc2)c1=O
 : 6	-3	9	2	-6	3213	2.3
Cc1ccc(NC(=O)Cn2c(C)csc2=O)cc1
 : -2	-28	.	7	4	6466	-0.9
Cc1ccc(N(CC(=O)NC2CCCCC2)C(=O)CNC(=O)c2ccco2)cc1F
 : 7	-16	0	19	11	6335	-0.2
CCOc1ccccc1NC(=O)/C=C/C(N)=O
 : 15	-22	-5	6	7	9875	19
COc1ccc(-n2c(-c3ccco3)n[nH]c2=S)cc1
 : 4	-16	-1	1	6	22219*	3.8
O=C1c2ccccc2C(=O)N1CCCc1nc(-c2ccncc2)no1
 : -5	-25	6	13	6	9246	8.1
CCOc1ccccc1N1CCN(C(=O)c2c(-c3ccccc3Cl)noc2C)CC1
 : 5	-14	1	3	3	2417	1.4
COc1ccc2c(c1)S/C(=C\C(=O)c1ccncc1)N2C
 : .	-56	-4	.	.	2915	.
Cc1cccc(NC(=O)c2nc[nH]c2C(=O)NC(CCCCNC(=O)OC(C)(C)C)C(=O)OC(C)(C)C)c1 (stereo unspecified)
 : 3	.	.	6	9	.	-5.6

More results
Every second line gives: Sa ugtP lethal	PrP 5UTR inh	BJeLR viability	Mtb hypoxia inh	Mtb hypoxia inh growth	Bead autofluor	RN4220 kill
COc1ccc(OC)c(-n2c(-c3cccc(S(=O)(=O)N(C)C)c3)n[nH]c2=S)c1
 : 3	-23	3	-4	-1	2514	1.5
CCN1C(=NCCCOC(C)C)NC(c2ccccc2)C(C(=O)OC)C1C (stereo unspecified)
 : -6	.	.	9	5	.	4.2
O=C(NC(=Nc1ccccc1)N1CCOCC1)Nc1ccccc1
 : 0	-15	6	0	7	10959	-0.2
O=C(O)c1ccc(NS(=O)(=O)c2ccc3c(c2)C(=O)c2cc(S(=O)(=O)Nc4ccc(C(=O)O)cc4)ccc2-3)cc1
 : -3	-9	2	-3	11	2116	0.1
CCOc1ccc(S(=O)(=O)NC(C)C(=O)NCc2ccc3c(c2)OCO3)cc1 (stereo unspecified)
 : 6	-19	-7	15	9	5176	1.7
CN(C)C(=O)CCc1ccc2c3c([nH]c2c1)[C@]1(C)[C@@H](C(=O)N2CCCCC2)C[C@H](CC(=O)NCC24CC5CC(CC(C5)C2)C4)C(=O)N1CC3
 : -1	-2	.	-6	8	3479	1.2
CC(NC(=O)c1ccco1)C(=O)OCc1cccc(C(F)(F)F)c1 (stereo unspecified)
 : -1	-16	.	-7	5	?	0.3
CN1CCN(C(=S)Nc2ccccc2Cl)CC1
 : -1	-16	4	.	.	2510	3.5
O=S(=O)(c1ccccc1Cl)N1CCC(O)(c2ccc3c(c2)OCO3)CC1
 : 5	-24	-6	7	12	10415	11
Cc1nnc(SCCN2CCOCC2)n1C
 : 3	-19	-9	6	-2	8726	2.3
C=CCNC(=O)NC(=O)COC(=O)COc1ccc(Br)cc1F
 : 8	-13	8	-6	3	.	4.9
COC(=O)c1ccc(NC(=S)Nc2ccccn2)cc1
 : 2	-96	-5	9	5	2486	3.1
Cc1ccc(Nc2nnc(SCC(=O)c3cc4ccccc4o3)s2)cc1C
 : -12	-23	10	5	2	2900	3.2
Cc1ccc(CN(Cc2ccco2)S(=O)(=O)c2ccc(S(=O)(=O)NCC3CCCO3)cc2)cc1 (stereo unspecified)
 : 3	-85	8	14	5	2343	2.9
OCCC1CN(Cc2ccon2)CCN1Cc1ccc(F)c(F)c1 (stereo unspecified)
 : 2	0	9	-10	3	4156	1.8
CN1C(=O)c2ccc(NC(=S)NC(=O)C(C)(C)C)cc2C1=O
 : 7	-12	6	6	5	2449	3.1
O=C(C1CCC(=O)N(C2CCCC2)C1)N1CCN(c2ccc(Cl)cc2)CC1 (stereo unspecified)
 : 5	-10	3	1	5	5140	-1.2
CN(C(=O)COc1ccc(S(=O)(=O)N2CCOCC2)cc1[N+](=O)[O-])C1CCS(=O)(=O)C1 (stereo unspecified)
 : 2	-20	9	3	9	4834	0.2
O=C(O)c1ccc2c(c1Nc1ccccc1)C(=O)c1ccccc1C2=O
 : .	-29	-1	.	.	3884	.
N#CCCn1cc(C(=O)Nc2ccc(F)cc2)c(-c2ccccc2)n1
 : 13	-22	7	5	-6	4035	2.5
CCC(=O)Nc1ccc(Nc2nc(C)c([N+](=O)[O-])c(Nc3ccc(NC(=O)CC)cc3)n2)cc1
 : 8	-19	-11	.	.	2177	10
Cc1cc(C)cc(OCC(=O)NNC(=O)CCN2C(=O)c3ccccc3C2=O)c1
 : 6	-21	-6	9	8	2169	7.8
Cc1ccc(N(C(=O)CCC(=O)Nc2cc(C)on2)C(C(=O)NC2CCCC2)c2ccccc2)cc1 (stereo unspecified)
 : 7	-17	-4	-4	13	1998	1.8
